# Bioassay records deposited in PubChem BioAssay by several laboratories.
# Env fusion inh = blocks HIV Env-driven cell-cell fusion. HeLa-JRFL Env/CEM21 cell fusion, luciferase. actives 1.1% (n = 360,000). inhibition, % at 12.3 µM;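 active = mean replicate inhibition score of at least 50 and every replicate individually at or above 50; inconclusive = only one of the two criteria met; inactive = mean below 50 and not all replicates reaching 50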;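 also: 0% = plate neutral controls and 100% = maraviroc near 300 nM; one replicate is shown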
# CSC inhib = blocks cancer stem cells; cancer stem cell-like cells viability, luminescence; inhibition, % at 7.5 µM; actives 1.1% (n = 300,000);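 active = mean at 75% or more and at least half the replicates too; inconclusive = mean and replicates disagree; tested in HMLE shEcad cells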;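 also: 0% = median of negative and 100% = median of positive control wells; the first replicate is given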
# Rce1 inh = yeast Ras-converting enzyme inhibition; calls only; actives 0.27% (n = 290,000); yeast membranes, quenched prenylated peptide cleavage fluorescence; Q03530; AID 2563;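 active = fall in fluorescence gain of 50% or more versus controls, with final raw signal at or below 3038400; inconclusive = same 50% fall but final raw signal above 3038400; inactive = fall in fluorescence gain under 50%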;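 also: plate controls were neutral control wells for no effect and wells lacking membranes for full effect; tested at 10 µM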
# Target sequence (Q03530 whole entry, looked up): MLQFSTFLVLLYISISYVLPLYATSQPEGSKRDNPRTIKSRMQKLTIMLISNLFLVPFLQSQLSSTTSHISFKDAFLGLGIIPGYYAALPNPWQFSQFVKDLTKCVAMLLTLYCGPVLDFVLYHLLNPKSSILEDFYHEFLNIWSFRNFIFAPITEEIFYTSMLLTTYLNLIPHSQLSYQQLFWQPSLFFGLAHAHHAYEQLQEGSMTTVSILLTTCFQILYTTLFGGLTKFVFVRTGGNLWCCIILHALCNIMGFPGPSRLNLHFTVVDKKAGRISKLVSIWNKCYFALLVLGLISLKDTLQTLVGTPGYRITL
# PABP FP inh = PABP-poly(A) binding inhibition; inhibition, % at 35 µM; PABP-poly(A) RNA binding, fluorescence polarization; P11940; actives 1% (n = 290,000);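 active = 50% or more with normal probe brightness, or confirmed in later tests; inconclusive = above 50% with abnormal brightness, or retests that disagree; inactive = below 50% or failed in later tests; about a fifth of its hits are not listed in these tables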;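 also: calls also rest on retests at 20 µM and on dose response follow-up; controls were probe without protein and protein plus probe with vehicle; some compounds called inactive have numbers as strong as hits; many hits fall short of the cut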
# eIF4H FP inh = inhibitors of RNA binding by human eIF4H | actives 0.94% (n = 290,000) | Q15056 | AID 2012 | eIF4H fluorescence polarization binding assay | inhibition, % at 35 µM;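 active = 50% or more with normal probe brightness, or confirmed in later tests; inconclusive = above 50% with abnormal brightness, or retests that disagree; inactive = below 50% or failed in later tests; about a fifth of its hits are not listed in these tables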;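 also: calls also rest on retests at 20 µM and on dose response follow-up; 0% = protein and probe with vehicle and 100% = probe without protein; strong numbers were not always called active; many hits fall short of the cut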
# MT1-MMP act inh = MT1-MMP (human) activation inhibition. P50281. HT1080 RFP-PRO-GFP cells, GFP/RFP ratio fluorescence, overnight; percent of plate control window, DMSO zero. GFP/RFP ratio change, % at 20 µM. actives 0.061% (n = 360,000);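 active = GFP/RFP ratio change of at least 30% with cell ATP level not reduced by more than half and red fluorescence within 50% of control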; also: strong numbers were not always called active
#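 Compound: 20 µM single dose, 1% DMSO / System: HT1080 RFP-PRO-GFP cells / Controls: DMSO and RFP-L50D-GFP cell wells / Read-out basis: GFP/RFP fluorescence ratio / Schedule: overnight compound exposure at 37 °C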
# Yeast UUG start = alters start codon recognition fidelity in yeast | activity score, % at 18.7 µM | actives 0.13% (n = 350,000) | S. cerevisiae UUG-firefly luciferase reporter, luminescence/redox ratio;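 active = replicate mean at a twofold rise or more, about +100% in these data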;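 also: firefly luciferase made from a UUG start codon reports start codon fidelity; reporter light over untreated wells divided by growth signal over untreated wells; some hits fall short of that in this replicate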
# eIF4H FP inh retest = also measured in eIF4H FP inh; calls as there; inhibition, %; compound at 20 µM; confirmation average;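 mean of two retest wells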
# PABP FP inh retest = second read-out of PABP FP inh, no call of its own (marks repeat the call); inhibition, %; compound at 20 µM; confirmation repeats;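 mean of two retest wells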
# MT1-MMP act inh RFP = recorded beside MT1-MMP act inh, whose call it bears; RFP signal change, %; measured here: RFP expression control read;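 0 = vehicle wells; hits needed this value within 50% of zero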
# * = called active by the depositor; i = inactive; ? = inconclusive; . = no result given.
SMILES,Env fusion inh,CSC inhib,Rce1 inh,PABP FP inh,eIF4H FP inh,MT1-MMP act inh,MT1-MMP act inh RFP,Yeast UUG start,others
C=COCCNC(=S)Nc1cccc(Cl)c1,3,-7,i,-2,0,-1,-8,.,
Cc1ccc(S(=O)(=O)NCCCN2CCOCC2)c(C)c1,.,-14,i,2,-1,2,4,-13,
Cc1cc(C(=O)CSc2nnc(N)s2)c(C)n1-c1c(C)n(C)n(-c2ccccc2)c1=O,.,10,i,13,-8,0,-2,-22,
Cc1ccc(C)c(N2CCN(C(=O)CCCn3c(=S)[nH]c4cc5c(cc4c3=O)OCO5)CC2)c1,13,13,i,-3,2,2,-6,4,
COc1cc(-c2nc3ccc(C)cn3c2Nc2ccc3c(c2)OCCO3)ccc1O,.,0,i,-1,-1,5,-2,-8,
CCOc1ccccc1C(=O)NCC(=O)NNC(=O)CN(C)S(=O)(=O)c1ccc(Cl)cc1,69*,16,i,.,.,0,-12,-14,
Cc1ncc([N+](=O)[O-])n1CCOC(=O)NC(NCc1cccnc1)C(Cl)(Cl)Cl (stereo unspecified),30,-3,.,-3,-5,1,0,.,
O=C(NCCc1cccc(Cl)c1)c1cccc(-n2cnnn2)c1,-3,.,.,.,.,1,1,-8,
COc1ccc(F)cc1-c1cc(NC(C)=O)c2ncc(-c3cccc(C(F)(F)F)c3)n2c1,14,.,.,.,.,-8,-8,2,
CSc1nnc(CNS(=O)(=O)c2ccc(Cl)cc2)n1C,14,13,i,-6,4,0,5,.,
Cn1c(Cn2c(=O)sc3ccccc32)nnc1SCc1ccccn1,2,1,i,-6,-2,3,0,-22,
Cc1nc2ccc(S(=O)(=O)NC(C(=O)Nc3nc4ccc(Cl)cc4s3)C(C)C)cc2s1 (stereo unspecified),-87,-3,i,2,-7,-2,-1,-9,
Cc1cc(N2CCN(C3CCCCC3)CC2)nc2cccc(O)c12,-2,61,i,18,-3,4,4,-15,
Fc1ccc(C2CCCCN2Cc2nc(CC3CC3)no2)cc1 (stereo unspecified),2,-19,i,-4,-3,1,4,.,
O=C(Nc1ccc(Cl)cc1)c1cccs1,-194,-2,i,7,-6,2,-1,-10,
c1ccc(COc2ccc(OCCCN3CCCCC3)cc2)cc1,-93,-18,.,14,-2,10,4,-18,
NS(=O)(=O)c1ccc(N/N=C/c2ccc3c(c2)OCO3)c([N+](=O)[O-])c1,-36,-2,i,6,-1,7,2,.,
CCc1sc(C(=O)Nc2ccc3c(c2)OCCO3)cc1Br,-325,-7,i,-5,0,-1,-4,-19,
Cc1ccc(C(=O)Nc2ccc(CN3CCS(=O)(=O)CC3)cc2)cc1C,-6,-2,i,-3,-6,4,-6,.,
CCOC(=O)N1CCN(S(=O)(=O)c2c(C)nn(C)c2C)CC1,.,-9,i,-11,-3,-4,-1,-3,

# The closing 2 records of the part before come first, to join the parts:
SMILES,Env fusion inh,CSC inhib,Rce1 inh,PABP FP inh,eIF4H FP inh,MT1-MMP act inh,MT1-MMP act inh RFP,Yeast UUG start,others
Cc1ccc(C(=O)Nc2ccc(CN3CCS(=O)(=O)CC3)cc2)cc1C,-6,-2,i,-3,-6,4,-6,.,
CCOC(=O)N1CCN(S(=O)(=O)c2c(C)nn(C)c2C)CC1,.,-9,i,-11,-3,-4,-1,-3,
CCN(CC(=O)NC(C)C)Cc1nc2sc3c(c2c(=O)[nH]1)CCC3,.,-16,i,10,8,-13,-1,.,
CCCC(=O)N=c1sc2c(OC)ccc(OC)c2n1C,13,-11,i,0,-2,6,6,.,
CCOC(=O)c1nc(SC)n(C)c1C(=O)OCC,-3,6,i,9,-4,-4,0,4,
O=C(Cc1nnc(NC(=O)c2ccccc2)s1)N/N=C/c1cccc(O)c1,-36,44,i,11,-5,1,1,-3,
CN(C(=O)CC1C(=O)NCCN1Cc1cccc(F)c1F)C1CC(C)(C)NC(C)(C)C1 (stereo unspecified),-14,-8,i,9,11,-1,2,-13,
COc1ccc(C(=O)NCCc2c[nH]c3ccccc23)cc1S(=O)(=O)N1CCCCC1C (stereo unspecified),8,.,.,.,.,-3,-2,-32,
O=C(NNC(=O)c1ccccc1F)c1ccc(NS(=O)(=O)c2ccc(F)cc2)cc1,-1,.,.,.,.,1,-1,-11,
COc1ccc(CC(=O)n2c(CC#N)nc3ccccc32)cc1OC,.,1,i,0,-8,2,-1,-14,
COC(=O)c1sccc1-c1ccc(C(=O)Nc2cccc(Cl)c2)o1,-82,4,i,-9,-10,11,1,-18,
Cc1nc(SCC(=O)Nc2ccc(N3CCOCC3)cc2)nc(C)c1C,.,3,i,-1,-4,6,0,.,
CCn1c(SCCC(=O)O)nnc1-c1cccnc1,2,-6,i,-8,6,1,8,.,
Cc1ccc(-c2c(C)c(-c3ccc(F)cc3)nc(N)c2C#N)o1,.,-2,i,75*,76*,9,1,-19,
NNC(=O)CSc1nc(-c2ccccc2)nc2c1CCCC2,8,2,i,8,-9,9,2,.,
COCCNC(=O)C1CCCN(c2nn3c(=O)cc(C)nc3s2)C1 (stereo unspecified),.,-10,.,-3,12,-1,0,1,
CCOC(=O)c1c(NC(=O)CSc2nnnn2-c2ccccc2)sc2c1CC(C)(C)NC2(C)C,34,39,i,-5,-2,1,-2,6,
S=c1[nH]nc(-c2cc(-c3ccccc3)n[nH]2)n1/N=C/c1cccc(Cl)c1,-7,13,i,?,?,10,-4,.,
COC(=O)[C@@]1(Cc2ccc(OC)cc2)[C@@H]2C(=CC(=O)[C@H]2CC(=O)C(=O)N(C)C)CN1C(=O)c1ccccc1,-89,20,.,-2,-4,.,.,.,
CCCCNC(=O)NCCN1CCOCC1,1,12,i,-2,-2,-1,1,-4,
CC(=O)OC[C@@H]1CN(Cc2ccccc2)C[C@H](n2cnc3c(NCc4ccco4)ncnc32)O1,-21,.,.,.,.,1,4,-6,
COc1ccc(C(=O)N/N=C/c2ccccn2)cc1,-39,.,.,.,.,5,2,-19,
COCCn1c(SCc2cc(=O)n3cc(C)ccc3n2)nc2ccccc2c1=O,.,-8,i,-4,2,.,.,.,
COCCCn1c(=O)/c(=C\c2ccccc2OC(F)F)s/c1=C(/C#N)C(=O)NCCOC,0,-3,i,?,?,-32,3,.,
CCC(=O)Nc1ccc2oc(-c3ccccc3Br)nc2c1,.,0,i,-6,-8,-1,-3,-21,
CC1CCCCN1Cc1nc2c(c(=O)n(C)c(=O)n2C)n1Cc1c(F)cccc1Cl (stereo unspecified),.,77*,.,-6,-8,-4,-2,6,
CC(=O)c1ccc(S(=O)(=O)Nc2ccc3c(c2)OCO3)cc1,-12,-13,.,.,.,2,-5,-4,
CC(=O)c1c(C(C)=O)c(C)n(-c2ccc(C(=O)O)cc2)c1C,.,4,i,5,3,3,4,-3,
COc1ccc(Br)c(C(=O)OCc2cc(=O)oc3cc(C)ccc23)c1,-15,-12,i,-1,4,-3,-3,-20,
O=C1CCC[C@@H]2[C@@H](Cc3ccccc3)[C@H](N3CCN(c4ccccc4)CC3)C[C@@H]3CCN1[C@@H]32,3,.,.,.,.,-2,-10,-1,
CC(NC(=O)COC(=O)c1ccccc1O)c1ccccc1 (stereo unspecified),-27,.,.,.,.,1,2,-16,
COc1ccc(-c2c3c(=O)n(C)c(=O)n(C)c3cn2Cc2ccccn2)cc1,-22,-2,i,11,14,1,0,-30,
CC(=O)OCC1=C(C(=O)O)N2C(=O)C(NC(=O)c3ccc(COc4c(C)cccc4Cl)o3)C2SC1 (stereo unspecified),1,-1,i,31,56,-5,2,-10,eIF4H FP inh retest=-2;PABP FP inh retest=11
CC1(NC(=O)Cc2csc(-c3ccc(Cl)cc3)n2)CCS(=O)(=O)C1 (stereo unspecified),0,1,.,.,.,-4,-6,-15,
N#CCC(CNc1ncc(C(F)(F)F)cc1Cl)OC(=O)c1ccc(Cl)cc1 (stereo unspecified),1,.,i,-3,0,-2,1,-18,
Cc1cccc(C(=O)OCC(=O)NN2C(=O)NC3(CCCCC3)C2=O)c1,.,-5,.,.,.,-4,-4,-12,
CNC(=O)C1Cc2c(-c3cccc(F)c3)ccnc2O1 (stereo unspecified),-24,.,.,.,.,1,4,23,
Cc1ccc(OCC(O)CN2C(=O)NC(C)(C)C2=O)cc1 (stereo unspecified),.,-6,i,-2,-4,-4,3,-9,
Cc1cc([N+](=O)[O-])c2ccccc2c1NS(=O)(=O)c1ccccc1,24,.,.,.,.,5,-8,-12,
Cc1nn(-c2ccccc2)c(C)c1/C=N/NC(=O)c1cc(-c2ccc(Cl)s2)[nH]n1,67,69,i,-2,-7,.,.,12,
CC(=O)c1ccn(S(=O)(=O)c2ccc(Cl)cc2)c1,8,-4,i,0,3,2,2,0,
Cc1cccc(N(Cc2cc(=O)[nH]c3ccccc23)C(=O)C(C)C)c1,-1,-9,i,1,18,-1,1,6,
CCn1c(-c2cccc(Cl)c2)n[nH]c1=S,.,-14,i,3,-8,3,4,-14,
O=C(/C=C\c1ccco1)Nc1nc(-c2ccc3ccccc3c2)cs1,3,30,i,-6,-10,-11,-8,.,
CCCCCOc1ccc(/C=C/C(=O)NCCc2nc3ccccc3[nH]2)cc1OC,-13,-5,i,-9,-1,1,-4,.,

# A run of entries taken from the entries so far, as a working copy:
SMILES,Env fusion inh,CSC inhib,Rce1 inh,PABP FP inh,eIF4H FP inh,MT1-MMP act inh,MT1-MMP act inh RFP,Yeast UUG start,others
COc1ccc(-c2c3c(=O)n(C)c(=O)n(C)c3cn2Cc2ccccn2)cc1,-22,-2,i,11,14,1,0,-30,
CC(=O)OCC1=C(C(=O)O)N2C(=O)C(NC(=O)c3ccc(COc4c(C)cccc4Cl)o3)C2SC1 (stereo unspecified),1,-1,i,31,56,-5,2,-10,eIF4H FP inh retest=-2;PABP FP inh retest=11
CC1(NC(=O)Cc2csc(-c3ccc(Cl)cc3)n2)CCS(=O)(=O)C1 (stereo unspecified),0,1,.,.,.,-4,-6,-15,
N#CCC(CNc1ncc(C(F)(F)F)cc1Cl)OC(=O)c1ccc(Cl)cc1 (stereo unspecified),1,.,i,-3,0,-2,1,-18,
Cc1cccc(C(=O)OCC(=O)NN2C(=O)NC3(CCCCC3)C2=O)c1,.,-5,.,.,.,-4,-4,-12,
CNC(=O)C1Cc2c(-c3cccc(F)c3)ccnc2O1 (stereo unspecified),-24,.,.,.,.,1,4,23,
Cc1ccc(OCC(O)CN2C(=O)NC(C)(C)C2=O)cc1 (stereo unspecified),.,-6,i,-2,-4,-4,3,-9,
Cc1cc([N+](=O)[O-])c2ccccc2c1NS(=O)(=O)c1ccccc1,24,.,.,.,.,5,-8,-12,
Cc1nn(-c2ccccc2)c(C)c1/C=N/NC(=O)c1cc(-c2ccc(Cl)s2)[nH]n1,67,69,i,-2,-7,.,.,12,
CC(=O)c1ccn(S(=O)(=O)c2ccc(Cl)cc2)c1,8,-4,i,0,3,2,2,0,
Cc1cccc(N(Cc2cc(=O)[nH]c3ccccc23)C(=O)C(C)C)c1,-1,-9,i,1,18,-1,1,6,
CCn1c(-c2cccc(Cl)c2)n[nH]c1=S,.,-14,i,3,-8,3,4,-14,
O=C(/C=C\c1ccco1)Nc1nc(-c2ccc3ccccc3c2)cs1,3,30,i,-6,-10,-11,-8,.,
CCCCCOc1ccc(/C=C/C(=O)NCCc2nc3ccccc3[nH]2)cc1OC,-13,-5,i,-9,-1,1,-4,.,
